Screening results as filed in PubChem BioAssay.
gsp antag: antagonizes gsp, the McCune-Albright syndrome mutation; gsp-mutant cells, cAMP HTRF, 30 min; control for the full effect not named in the record; 0.4% of 340,000 active; Potency, µM (highest dose often 76.9 µM), for inactives: at the highest dose activity change, negative = inhibition, actives largely listed as inhibitors; AID 624288; active = falling curve of any shape with a large fitted effect; inconclusive = falling curve, mostly with a smaller effect; inactive = flat or rising curve; cell line not stated here;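 also: intracellular cAMP measured with PDE inhibitor Ro 20-1724 present during compound exposure; potency is read from the fitted curve at half-maximal effect; % is scaled to controls: 0 for no effect and ±100 for the full control effect; nearly all actives have a fitted effect of over 65% in size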
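HTRF cAMP read-out (cAMP-d2 plus anti-cAMP antibody-K in lysis buffer, 30 min RT). Before lysis, cells are exposed to compounds with […] for 30 min at 37C in DPBS containing Ca/Mg, BSA and Tween 20.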
PINK1 expr mod: PINK1 expression modulation; PINK1 immunofluorescence, high-content cytometry, 24 h; Potency, µM (top dose mostly 76.6 µM), inactives show top-dose activation (PINK1 increase), actives largely listed as activators; 0.2% of 410,000 active; AID 624263; active = well fitted activation curve with a large enough effect; inconclusive = small, poorly fitted or top-dose-only effect; inactive = flat fitted curve, though single readings scatter; cell line not stated here;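 also: potency is read from the fitted curve at half-maximal effect; % of control where 0% means no effect; nearly all actives have a fitted effect of over 65% in size; a mitochondrial uncoupler was the plate control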
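Compound titrations (5 concentrations, 24 h) on a stable cell line; DMSO and CCCP controls. Endpoint: fixed-cell PINK1 immunofluorescence with mitochondrial, cell and nuclear markers, scanned by microplate cytometer.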
Sfp inh: blocks B. subtilis Sfp PPTase activity; Q9F4F7; Biochemical Sfp PPTase activity, qHTS; Potency, µM, for inactives: max response, negative = inhibition, actives largely listed as inhibitors; 3.5% of 310,000 active; active = well fitted inhibition curve with a large enough effect; inconclusive = small, poorly fitted or top-dose-only effect, or another doubt; inactive = no such curve, though single readings can be large or run the other way;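 also: the enzyme is Sfp with the accession as filed and its product quenches rhodamine fluorescence; potency is read from the fitted curve at half-maximal effect; 0% = enzyme reaction without inhibitor and -100% = no enzyme wells; top concentration of the series not given in the record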
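Fluorescence-quenching assay with 15 nM Sfp, 5 uM rhodamine-CoA and 12.5 uM BHQ-2-labelled ybbR peptide in pH 7.6 Hepes/MgCl2 buffer. Enzyme was pre-incubated with compound for 15 min at room temperature. Rate was taken from the 30-min fluorescence change (525/598 nm).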
Menin MLL FP FL: menin-MLL binding inhibition, fluorescein peptide; Fluorescence polarization, fluorescein-MLL peptide displacement from menin; FP activity change, % at 61.4 µM; 290,000 tested, under 10 active; AID 1766; inconclusive = falling polarisation curve, or a change in total fluorescence; inactive = total fluorescence flat and polarisation flat or rising; no compound was filed as active; the % refers to the polarisation; negative = inhibition;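 also: % of control where 0% means no effect; inhibitors lower the polarisation; unlabelled MLL peptide was the positive control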
gsp ag: activates gsp, the McCune-Albright syndrome mutation | gsp mutant cells, cAMP HTRF, 30 min; control for the full effect not named in the record | Potency, µM (top dose mostly 76.9 µM), without a hit: top-dose activation (cAMP increase), actives largely listed as activators | 0.13% of 340,000 active; active = well fitted activation curve with a large enough effect; inconclusive = small, poorly fitted or top-dose-only effect, or another doubt; inactive = no such curve, though single readings can be large or run the other way; cell line not stated here;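 also: phosphodiesterase inhibitor Ro 20-1724 added with compounds to block cAMP breakdown; potency is read from the fitted curve at half-maximal effect; nearly all actives have a fitted effect of over 60% in size; about a fifth of the inactives were tested at one dose only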
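Cells in DMEM/10% FBS with G418 were pretreated with compounds in DMSO plus […] (300 uM stock) for 30 min at 37C. cAMP was measured by HTRF (cAMP-d2 plus anti-cAMP antibody-K) after 30 min at room temperature.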
D2 agonist: activates the human D2 dopamine receptor | AID 624465 | 0.084% of 360,000 active | P14416 | activation, % (no concentration beside the values) | DiscoveRx PathHunter D2 beta-arrestin, luminescence, 90 min; 100% = 57 uM dopamine signal; in the data active = activation above about 40%; inconclusive = about 15% to 40%; inactive = below about 15%; also: compound concentration not given in the record; the text of the record calls up to 30% inactive
Target sequence (P14416 whole entry, looked up): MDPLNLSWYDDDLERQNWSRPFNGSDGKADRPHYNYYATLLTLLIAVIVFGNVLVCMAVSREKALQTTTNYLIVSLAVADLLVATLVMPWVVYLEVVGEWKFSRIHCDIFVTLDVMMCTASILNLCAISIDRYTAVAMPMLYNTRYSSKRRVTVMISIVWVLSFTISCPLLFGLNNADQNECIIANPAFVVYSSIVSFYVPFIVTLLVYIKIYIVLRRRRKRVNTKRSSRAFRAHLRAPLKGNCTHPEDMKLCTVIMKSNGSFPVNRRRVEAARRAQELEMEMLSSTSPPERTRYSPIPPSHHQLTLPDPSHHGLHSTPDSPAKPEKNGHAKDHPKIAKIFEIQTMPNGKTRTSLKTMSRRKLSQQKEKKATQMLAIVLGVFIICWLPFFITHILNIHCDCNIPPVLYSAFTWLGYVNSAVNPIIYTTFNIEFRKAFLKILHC
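Agonist mode: compounds alone added to overnight-plated D2 PathHunter cells for 90 min at 37 C, with 57 uM final dopamine (EC100) defining full response. Beta-arrestin recruitment detected by chemiluminescent reagent, read after 1 h at ambient temperature.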
ClpP mod: qHTS Assay for Activators of ClpP. ATP-dependent Clp protease proteolytic subunit (Bacillus subtilis (strain 168)), P80244. purified B. subtilis ClpP, FRET peptide cleavage, 20 min. Potency, µM (series often up to 57.5 µM), without a hit: at the top dose activity change, negative = active. 1.9% of 340,000 active. AID 651965, 2013; active = well fitted falling curve with a large enough effect; inconclusive = small, poorly fitted or top-dose-only effect; inactive = no such curve, though single readings can be large or run the other way; also: potency is read from the fitted curve at half-maximal effect; the source files actives as falling curves though it sought activators and does not explain the sign; nearly all actives have a fitted effect of over 65% in size; many hits overshoot -100%
Target sequence (P80244 whole entry, looked up): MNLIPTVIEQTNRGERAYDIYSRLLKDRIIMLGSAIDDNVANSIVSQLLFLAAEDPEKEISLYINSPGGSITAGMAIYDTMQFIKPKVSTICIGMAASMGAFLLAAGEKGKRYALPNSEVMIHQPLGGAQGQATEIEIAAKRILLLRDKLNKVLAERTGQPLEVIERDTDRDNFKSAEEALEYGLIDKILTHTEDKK
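ClpP 10 microg/mL final, pH 8 Tris/KCl buffer with BSA, glycerol, Tween-20; compound pinned in; FRET-FV substrate; RT 20 min; Ex320/Em430; ΔFRET vs ADEP 5.8 microM, DMSO, no enzyme.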
An asterisk follows results filed as active; ? = inconclusive; · = no result given; & = joins results of further samples; [ ] = remark or other dose.

Values run as follows: gsp antag	PINK1 expr mod	Sfp inh	Menin MLL FP FL	gsp ag	D2 agonist	ClpP mod
> CCNC(=O)N1c2ccc(OC)cc2C(C)=CC1(C)C
 : -25%	6.9%	-18%	-0.5	13%	4.9	32µM*
> O=C(NC1CCCC1)C(c1ccco1)N(C(=O)c1csnn1)c1ccccc1 (stereo unspecified)
 : 13%	-2.0%	20%	-1.2	-5%	0.6	·
> Cc1ccccc1-c1nc(CS(=O)(=O)CC(=O)NCCCN2C(C)CCCC2C)c(C)o1 (stereo unspecified)
 : 3%	-0.7%	8%	2.0	11%	-2.7	-5.9%
> CN(C)c1ccc(C2Nc3ccccc3C(=O)N2CCCN2CCOCC2)cc1 (stereo unspecified)
 : -6%	0.5%	9%	2.2	-1%	-5.0	-2.2%
> CC1CC1C(=O)N(C)CC(=O)Nc1ccccc1Br (stereo unspecified)
 : 12%	-0.4%	·	·	-2%	-3.0	0.0%
> O=C(/C=C/c1ccc(Cl)cc1)NC1CCS(=O)(=O)C1 (stereo unspecified)
 : 5%	-1.4%	22%	-2.8	0%[15.4 µM]	0.2	·
> COc1ccc(NC(=O)c2cc(-c3cc(C)cc(F)c3)n[nH]2)cc1OC
 : ·	9.5%	·	·	·	2.0	1.0%
> Cc1ccccc1OCc1nc2ccccc2c(=O)n1NC(=O)c1ccco1
 : 0%	3.1%	12%	0.9	-29%	-4.3	-23%
> Cc1ccc(C(=O)CNc2ccc(Cl)cc2)cc1
 : 10%	4.0%	-3%	0.3	14%	-17	-0.4%
> COc1ccccc1/C=C1\SC(=S)N(CCC(=O)NNC(=O)c2ccccc2OC)C1=O
 : -19%	13%	7%	-3.6	10%[15.4 µM]	-1.0	-1.1%
> CCOC(=O)CC1C(=O)NCCN1C(=O)c1c(Cl)cccc1Cl (stereo unspecified)
 : 11%	2.8%	14%	-1.5	1%	6.1	·
> CCCCn1c(Cc2ccccc2)nnc1SCC(=O)N1CCOCC1
 : 0%	-0.3%	-5%	1.2	8%	1.5	-1.5%
> Cc1ccc(OCC(=O)NNC(=O)c2ccc(NC(=O)C3CC3)cc2)c(C)c1
 : 1%	4.8%	5%	-1.0	-15%	0.2	1.6%
> Nc1c(NCCN2CCOCC2)c2ccccc2oc1=O
 : -9%	0.8%	-22%	-4.9	-13%	3.6	-3.3%
> O=C(NN1C(=O)/C(=C\c2cccnc2)SC1=S)C(c1ccccc1)c1ccccc1
 : -18%	3.9%	-7%	6.6	-20%	-3.0	-13%
> Cc1cc(C(=O)NNc2ccccc2F)no1
 : ?	0.0%	6%	-0.5	15%	11	·
> COc1cccc(C2=NO[C@@H]3C(=O)N(c4ccc5c(c4)OCCO5)C(=O)[C@H]23)c1OC
 : -3%	2.1%	-9%	3.5	?	3.8	-1.1%
> CS(=O)(=O)Nc1cccc(C(=O)CC2(O)C(=O)Nc3ccccc32)c1 (stereo unspecified)
 : -6%	0.5%	6%	0.5	18%	-0.1	-0.9%
> CCN1C(=O)/C(=C/C=C2/Sc3ccc4ccccc4c3N2CCO)SC1=S
 : 8%	-0.3%	50µM*	?	-8%[15.4 µM]	-1.9	1.1%
> O=C1C(=Cc2ccccc2[N+](=O)[O-])Cc2ccccc21
 : ·	2.0%	·	·	?	-0.6	0.0%
> Cc1ccc(Cn2ncc3c(NCCCN4CCOCC4)ncnc32)cc1
 : -4%	-1.1%	12%	1.2	7%	-3.5	1.0%
> COc1ccc(CNC(=O)CN(Cc2ccc(F)cc2)C(=O)c2csnn2)cc1
 : -23%	1.2%	20%	-4.7	14%[15.4 µM]	-1.3	-0.8%
> COc1cccc(NC(=O)c2ccc(CN3CCc4ccccc4C3)cc2)c1
 : -5%	0.5%	7%	3.5	5%	-4.7	-4.8%
> O=CN1CCN(S(=O)(=O)c2ccc(S(=O)(=O)NC3CCCCC3)cc2)CC1
 : 1%	2.2%	-4%	-3.5	-48%[inhibitor]	-0.2	·
> Cc1nnc(NC(=O)CSCc2c(C)noc2C)s1
 : 13%	-0.5%	·	·	-3%[15.4 µM]	-7.3	-0.4%
> COC(=O)Cn1ccc2cc(S(=O)(=O)N3CCCCCC3)ccc21
 : 4%	2.0%&2.0%	7%	-0.7	19%	-0.9	-2.9%&-14%
> C#CCOCCOCCOCCNc1nc(N2CCN(C(=O)Cn3cc(CCCN=C(N)N)nn3)CC2)nc(N2CCN(C(=O)[C@H](CCCCN)n3cc(CCCC)nn3)CC2)n1
 : 9%	1.6%	·	·	·	-0.5	0.1%
> COc1ccc2c(c1)OC[C@H]1[C@H]2N2C(=O)c3cc(C)ccc3NC(=O)[C@@]2(C)[C@H]1c1ccccc1
 : -11%	4.6%	·	·	·	-1.4	-23%
> COc1c(O)ccc(/C=N\NC(=O)c2ccc3c(c2)OCO3)c1[N+](=O)[O-]
 : -1%	2.5%	19%	-0.2	-8%	-3.3	0.0%
> CC(C)=CCC[C@](C)(O)C1CC[C@]2(C)C1C(O)CC1[C@@]3(C)CCC(O)C(C)(C)C3C(O[C@@H]3OC(CO)C(O)C(O)C3O[C@@H]3OC(C)C(O)C(O)C3O)C[C@]12C (stereo partly specified)
 : 6%	2.1%	·	·	·	-1.6	-3.0%
> CCc1nc(NCc2ccco2)c2oc3ccccc3c2n1
 : 1%	0.5%	?	12	14%	-1.9	5.1%
> CCN1CCN(c2ccc(S(=O)(=O)N3CCCCC3)cc2NC(=O)c2cccc(F)c2)CC1
 : -14%	0.1%	·	·	-5%[15.4 µM]	-2.6	·
> COc1c(O)c(O)c2oc(-c3ccccc3)cc(=O)c2c1OC
 : -6%	0.0%	3.2µM*	-3.1	·	7.6	1.6%
> Cc1ccc(NC(=O)c2ccc(OC(=O)COc3cccc(Cl)c3)cc2)cc1
 : 5%	0.3%	29%	0.2	18%	-0.4	-4.2%
> COC(=O)CCC(C(=O)CN1C(=O)c2ccccc2C1=O)N1C(=O)c2ccccc2C1=O (stereo unspecified)
 : 1%	-0.1%	·	·	-23%	0.7	-9.9%
> CCCN(CC(=O)Nc1ccccc1C)C(=O)c1ccc(N2CCCCCC2)c([N+](=O)[O-])c1
 : -14%	5.0%	3%	-4.9	30%	-0.2	-0.8%
> CCC[C@@H](CN1CCC[C@H]1CN1C(N)=NC[C@H]1CC(C)C)N1C[C@@H]([C@H](C)CC)N(CCc2ccc(Cl)c(Cl)c2)C1=N
 : 6%	0.2%	·	·	·	-5.5	0.5%
> COc1ccc(C(=O)O/N=C(\N)c2ccccc2)cc1
 : 3%	-0.6%	6%	0.0	0%[15.4 µM]	2.6	·
> O=C(NCc1cccnc1)Nc1cccc(Cl)c1Cl
 : -2%	1.6%	8%	-6.7	?	-7.2	-3.3%
> Cc1cccc(N/C(=N\S(=O)(=O)c2ccccc2)C(F)(F)F)c1
 : 6%	1.5%	18%	0.0	-13%	-3.1	-1.8%
> Nc1ccnc(=O)[nH]1
 : 0%	1.0%	·	·	·	-6.4	0.3%
> O=C(COc1coc(CN2CCN(c3ccc(F)cc3)CC2)cc1=O)NCC1CCCO1 (stereo unspecified)
 : 2%	-0.1%	·	·	-3%[15.4 µM]	1.7	-0.1%
> O=[N+]([O-])c1cc(C=Nc2ccc3ccccc3c2)ccc1Br
 : -2%	14%	-7%	0.0	2%	-1.6	28µM*
> Cc1ccc2nc(-c3ccc(F)cc3)c(Cc3ccccc3C(F)(F)F)n2c1
 : ·	1.0%	·	·	·	-2.8	-25%
> NC(=O)Nc1ccc(C(=O)OCC(=O)Nc2ccc(Cl)cn2)cc1
 : -2%	0.3%	-3%	-1.1	5%	-7.5	-3.0%
> CC1CCN(C(=O)CCCOc2cc(=O)n(C)c3ccccc23)CC1
 : -16%	6.8%	0%	0.5	?	1.6	-4.1%
> CC1C(=O)Nc2ccccc2N1C(=O)c1ccc(Cl)cc1 (stereo unspecified)
 : 9%	-2.0%	-2%	-1.0	14%	0.5	0.9%
> O=[N+]([O-])c1ccc2c(c1)C(N1CCOCC1)/C(=C/COc1ccc3ccccc3c1Br)O2 (stereo unspecified)
 : 2%	1.6%	-1%	-2.1	4%	-4.7	0.2%
> O=C(NCc1nnnn1-c1ccc(F)cc1)c1ccc(S(=O)(=O)N2CCOCC2)cc1
 : ·	-0.5%	·	·	-27%	-3.8	-1.1%
> COc1ccc(OC(C)C(=O)N(C)Cc2nc(-c3cccc(C)c3)no2)cc1 (stereo unspecified)
 : -22%	-0.9%	-2%	-2.3	-18%[15.4 µM]	0.2	·
> CN(c1ccccc1)S(=O)(=O)c1ccc(C(=O)N2CCc3ccccc3C2)cc1
 : -11%	-1.2%	17%	-7.4	16%	-3.6	-0.9%
> O=C1CC(c2ccccc2)=C(c2ccccc2)C1c1ccccc1 (stereo unspecified)
 : -8%	-1.4%	·	·	-38%[inhibitor]	-3.9	-5.4%
> COc1ccc(CNC(=O)c2cc3ccccc3oc2=O)cc1
 : -4%	-0.5%	9%	0.3	5%	-4.1	-8.3%
> O=C(Cc1ccc([N+](=O)[O-])cc1)Nc1ccon1
 : 4%	0.6%	10%	1.5	2%	-4.4	-0.2%
> CC(CN1C(C)CCCC1C)OC(=O)c1ccc(F)cc1 (stereo unspecified)
 : 5%	0.4%	3%	-2.2	-2%[15.4 µM]	-1.0	-0.9%
> CN(CC(=O)N1CCCCCC1)S(=O)(=O)c1cccc2cccnc12
 : -2%	0.8%	9%	3.4	11%	-5.4	-0.5%
> O=C(NNC(=O)c1cccnc1SCc1cccc([N+](=O)[O-])c1)c1ccccn1
 : 1%	1.6%	2%	-1.4	-6%[15.4 µM]	-4.4	-2.2%
> Cc1ccc(CN(C)C(=O)C2CCC(=O)N(CCc3ccccc3)C2)o1 (stereo unspecified)
 : -15%	2.7%	35µM*	0.7	9%	-7.1	-1.1%
> CNc1cc(NS(=O)(=O)c2ccc(N)cc2)nc(NC)n1
 : -4%	0.5%	-10%	-0.4	·	-4.2	-16%
